Screening data as filed in PubChem.
D2 ag: Beta-Arrestin HTS for Positive Allosteric Modulators of the Human D2 Dopamine Receptor: Agonists; 0.084% of 360,000 active; D(2) dopamine receptor (Homo sapiens), P14416; DiscoveRx PathHunter D2 beta-arrestin, luminescence, 90 min; 100% = 57 uM dopamine signal; AID 624465, 2012; activation, % (concentration not given with the values); in the data active = activation above about 40%; inconclusive = about 15% to 40%; inactive = below about 15%; further: compound concentration not given in the record; the text of the record calls up to 30% inactive
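Agonist mode: compounds alone added to overnight-plated D2 PathHunter cells for 90 min at 37 C, with 57 uM final dopamine (EC100) defining full response. Beta-arrestin recruitment detected by chemiluminescent reagent, read after 1 h at ambient temperature.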
D2 PAM: Beta-Arrestin HTS for Positive Allosteric Modulators of the Human D2 Dopamine Receptor: Potentiators | AID 624464, 2012 | DiscoveRx D2 beta-arrestin cells, luminescence, 90 min; 100% = 57 uM dopamine signal | D(2) dopamine receptor (Homo sapiens), P14416 | potentiation, % (no concentration beside the values) | 0.23% of 360,000 active; active = potentiation of 50% or more; inconclusive = 30% to 50%; inactive = 30% or less;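 further: compound concentration not given in the record; tested on top of an EC20 dose of dopamine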
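PathHunter beta-arrestin assay in DiscoveRx D2 cells. Compounds were added with an EC20 of dopamine (50 nM final) for 90 min at 37 deg C. Luminescence was read 1 h after detection reagent, with 57 uM dopamine as the EC100 control.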
TRPML1 agonist: qHTS for Agonists of the Human Mucolipin Transient Receptor Potential 1 (TRPML1); Mucolipin-1 (Homo sapiens), Q9GZU1; activation, % (concentration not given with the values); TRPML1-expressing cells, Ca2+ dye fluorescence, FDSS; host cell line not named in the record; reference of the full effect not given here; 0.12% of 410,000 active; AID 624414, 2012; in the data active = activation above about 50%; inconclusive = about 30% to 50%; inactive = below about 30%; further: 0% is about no effect; the text of the record puts the active cut at 80%
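TRPML1-DL cells, Tet-induced overnight (~16 h, 37 degrees C), loaded 45-90 min at room temperature with Ca8 no-wash calcium dye plus quencher. FDSS fluorescence: 10 s baseline, compound pin-transfer, 110 s agonist read, then EC80 54-4 (4uM final) and 110 s antagonist read.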
CtBP-E1A blk: qHTS Assay for Inhibitors of the CtBP/E1A Interaction; AlphaScreen GST-E1A/His-CtBP binding, 1536-well; stronger effect = lower value; control for the full effect not named in the record; 0.49% of 340,000 active; AID 651724, 2012; activity change, % (concentration not given with the values); in the data active means activity change below about -65%; inconclusive means about -30% to -65%; inactive means above about -30%; further: on the % scale 0 is the no-effect control and ±100 the full control effect
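AlphaScreen with 125 nM GST-E1A and 125 nM His-CtBP (5X stocks) in Tris pH 8.0, 300 mM NaCl, BSA, Tween 20, TCEP. Compounds preincubated 2 h at 37 deg C, then glutathione donor/nickel acceptor beads added for 1 h at 37 deg C in dark.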
Six1-Eya2 blk: qHTS Assay for Inhibitors of the Six1/Eya2 Interaction; Homeobox protein SIX1 (Homo sapiens) + Protein phosphatase EYA2 (Homo sapiens), …; AlphaScreen GST-Six1/His-Eya2 binding, biochemical; stronger effect = lower value; control for the full effect not named in the record; activity change, % (concentration not given with the values); 0.56% of 360,000 active; in the data active = activity change below about -65%; inconclusive = about -30% to -65%; inactive = above about -30%; further: on the % scale 0 is the no-effect control and ±100 the full control effect
Target sequence (O00167 whole entry, looked up): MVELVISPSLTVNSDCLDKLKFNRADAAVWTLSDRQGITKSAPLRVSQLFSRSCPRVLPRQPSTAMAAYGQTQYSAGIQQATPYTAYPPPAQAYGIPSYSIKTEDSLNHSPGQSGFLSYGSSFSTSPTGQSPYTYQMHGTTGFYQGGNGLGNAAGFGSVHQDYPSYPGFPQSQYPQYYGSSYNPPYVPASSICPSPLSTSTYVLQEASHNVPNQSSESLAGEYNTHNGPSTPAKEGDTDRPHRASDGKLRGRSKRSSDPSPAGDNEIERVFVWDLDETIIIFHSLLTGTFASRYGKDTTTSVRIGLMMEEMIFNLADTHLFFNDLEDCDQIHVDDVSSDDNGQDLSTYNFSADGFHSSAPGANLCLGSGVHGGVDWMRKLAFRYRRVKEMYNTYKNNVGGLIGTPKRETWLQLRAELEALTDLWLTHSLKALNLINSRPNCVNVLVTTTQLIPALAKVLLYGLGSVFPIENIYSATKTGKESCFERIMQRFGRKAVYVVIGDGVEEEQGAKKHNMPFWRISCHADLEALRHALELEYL
Target sequence (Q15475 whole entry, looked up): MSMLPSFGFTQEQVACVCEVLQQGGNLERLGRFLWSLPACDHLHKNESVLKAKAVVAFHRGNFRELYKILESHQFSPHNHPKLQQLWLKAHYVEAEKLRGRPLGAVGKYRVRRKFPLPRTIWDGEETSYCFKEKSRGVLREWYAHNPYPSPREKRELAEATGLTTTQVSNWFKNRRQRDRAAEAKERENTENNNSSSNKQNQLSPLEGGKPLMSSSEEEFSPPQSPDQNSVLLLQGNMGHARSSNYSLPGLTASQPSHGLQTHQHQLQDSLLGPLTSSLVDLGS
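GST-Six1 + His-Eya2 (5X stock: 250/500 nM); Tris pH 8.0, 300 mM NaCl, 0.05% BSA, 0.02% Tween 20; GSH donor/Ni acceptor beads; 1 h 37 °C dark; AlphaScreen readout.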
PINK1 expr mod: A Quantitative High throughput Screen to Identify Chemical Modulators of PINK1 Expression | PINK1 immunofluorescence, high-content cytometry, 24 h | 0.2% of 410,000 active | Potency, µM (series often up to 76.6 µM), for the others: at the highest dose activation (PINK1 increase), actives largely listed as activators; active = well fitted activation curve with a large enough effect; inconclusive = small, poorly fitted or top-dose-only effect; inactive = flat fitted curve, though single readings scatter; cell line not stated here;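 further: potency means the concentration at half of the fitted maximal effect; % of control where 0% means no effect; nearly all actives have a fitted effect of over 65% in size; a mitochondrial uncoupler was the plate control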
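Readout is PINK1 immunofluorescence, quantified alongside mitochondrial, cell and nuclear markers by laser-scanning microplate cytometry. Cells from a stable line were exposed to compound titrations (5 concentrations) for 24 hours, with CCCP controls.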
* = called active by the depositor; & = joins results of further samples; [ ] = dose if it differs, or a comment.

How did OCCC1CN(Cc2cnc(N3CCCC3)s2)CCN1C1CCCC1 (stereo not drawn) do in these assays?
D2 ag: -4.5; D2 PAM: -26.5; TRPML1 agonist: 0.0; CtBP-E1A blk: -2.3; Six1-Eya2 blk: 0.0; PINK1 expr mod: 0.1%

How did Cc1ccc2c(cnn2C(=O)CCC(=O)NCc2cccc(Br)c2)c1 do in these assays?
D2 ag: -1.0; D2 PAM: -2.0; TRPML1 agonist: -0.4; CtBP-E1A blk: 8.5; Six1-Eya2 blk: 6.4; PINK1 expr mod: 1.9%

How did Cc1ccccc1NS(=O)(=O)c1cc(C(=O)N2CCCC2)ccc1Cl do in these assays?
D2 ag: -5.5; D2 PAM: -2.4; TRPML1 agonist: -0.1; CtBP-E1A blk: 19.5; Six1-Eya2 blk: -3.7; PINK1 expr mod: -1.0%

Results for COc1cc(NC(=O)N[C@@H](Cc2c[nH]c3ccccc23)C(=O)O)c(C(=O)O)cc1OC ?
D2 ag: -2.5; D2 PAM: -9.1; TRPML1 agonist: -1.4; CtBP-E1A blk: 18.2; Six1-Eya2 blk: 2.5; PINK1 expr mod: -1.4%

Results for COc1ccc(C(=O)C2CCCN(S(=O)(=O)c3ccccc3F)C2)c(C)c1 (stereo not drawn) ?
D2 ag: 0.9; D2 PAM: 19.9; TRPML1 agonist: 0.3; CtBP-E1A blk: 22.8; Six1-Eya2 blk: 27.5; PINK1 expr mod: 1.4%

How did COc1cc(CN2CCN(CC3CC3)CC2CCO)cc(OC)c1 (stereo not drawn) do in these assays?
D2 ag: 1.3; D2 PAM: -12.9; TRPML1 agonist: -1.1; CtBP-E1A blk: -0.4; Six1-Eya2 blk: 0.7; PINK1 expr mod: -0.8%

What do the screens show for `C/C(=N\NC(=O)c1nnn(-c2nonc2N)c1CSc1ccc(Cl)cc1)c1ccco1`?
D2 ag: -0.8; D2 PAM: -32.9; TRPML1 agonist: 0.3; CtBP-E1A blk: 3.2; Six1-Eya2 blk: 0.2; PINK1 expr mod: 4.0%

Results for O=C(N=C1SC2CS(=O)(=O)CC2N1c1ccc(Cl)c(Cl)c1)C1CCCO1 (stereo not drawn) ?
D2 ag: -4.6; D2 PAM: -5.7; TRPML1 agonist: 1.1; CtBP-E1A blk: 0.1; Six1-Eya2 blk: 3.6; PINK1 expr mod: -0.3%

Results for N#Cc1cc([N+](=O)[O-])ccc1NC(=O)COC(=O)C1CCC(=O)N1 (stereo not drawn) ?
D2 ag: 0.9; D2 PAM: -10.6; TRPML1 agonist: -0.2; CtBP-E1A blk: 0.3; Six1-Eya2 blk: 5.3; PINK1 expr mod: -5.7%

Results for CC(C)(C)OC(=O)C[C@@H]1C/C=C\C[C@@H](CC(=O)N[C@@H](CO)Cc2ccccc2)C(=O)NCCOC1=O ?
D2 ag: 2.9; TRPML1 agonist: -0.4; CtBP-E1A blk: 6.8; Six1-Eya2 blk: 1.8; PINK1 expr mod: -0.4%

What do the screens show for `Cc1ccc(Cc2cnc(NC(=O)c3ccco3)s2)cc1`?
D2 ag: 4.0; D2 PAM: -6.5; TRPML1 agonist: 4.1; CtBP-E1A blk: 13.3; Six1-Eya2 blk: -7.0

Results for OCCNCCCCCOc1ccc(F)cc1 ?
D2 ag: 1.3; D2 PAM: -26.7; TRPML1 agonist: -0.3; CtBP-E1A blk: 6.9; Six1-Eya2 blk: 4.0; PINK1 expr mod: -0.8%[38.3 µM]

Results for O=C1C(=O)N(c2ccccc2)C(c2ccccc2[N+](=O)[O-])/C1=C(\O)c1ccccc1 (stereo not drawn) ?
D2 ag: 0.6; D2 PAM: -14.5; TRPML1 agonist: 1.2; CtBP-E1A blk: -1.3; Six1-Eya2 blk: 2.5; PINK1 expr mod: 0.2%

What do the screens show for `C[C@H](NC(=O)Cn1cncn1)c1ccccc1`?
D2 ag: 0.1; D2 PAM: 6.4; TRPML1 agonist: -0.2; CtBP-E1A blk: -6.3; Six1-Eya2 blk: 6.8; PINK1 expr mod: -0.4%

Results for CC(C)(O)CN(CCCNC(=S)Nc1ccccc1)C(=S)Nc1ccccc1 ?
D2 ag: -2.0; D2 PAM: -15.2; TRPML1 agonist: -0.2; CtBP-E1A blk: 16.5; Six1-Eya2 blk: 7.3; PINK1 expr mod: -2.5%

What do the screens show for `O=C1C(C2=C(O)c3ccccc3C2=O)=Nc2ccccc21`?
D2 ag: -2.4; D2 PAM: -1.5; TRPML1 agonist: 0.6; CtBP-E1A blk: -8.1; Six1-Eya2 blk: -26.1; PINK1 expr mod: -2.6%

How did O=C(CSC1=NC(=O)C(c2ccccc2)C(=O)N1)Nc1cccc(Cl)c1 (stereo not drawn) do in these assays?
D2 ag: -1.6; D2 PAM: -21.6; TRPML1 agonist: -0.4; CtBP-E1A blk: -7.9; Six1-Eya2 blk: 3.4; PINK1 expr mod: 0.8%

What do the screens show for `CCCc1c(C(=O)N/N=C(\C)c2ccc(CC(C)C)cc2)nnn1-c1nonc1N`?
D2 ag: 0.0; D2 PAM: -13.9; TRPML1 agonist: -0.1; CtBP-E1A blk: -1.8; Six1-Eya2 blk: 12.7; PINK1 expr mod: 5.8%

What do the screens show for `CCOC(=O)CSCC(=O)Nc1c(C(=O)C2CC2)oc2ccccc12`?
D2 ag: -2.6; D2 PAM: -18.6; TRPML1 agonist: 1.5; CtBP-E1A blk: 19.5; Six1-Eya2 blk: 8.0; PINK1 expr mod: -0.2%[38.3 µM]

What do the screens show for `Cc1cccc(NCC(=O)N/N=C/c2ccc(Br)cc2)c1`?
D2 ag: -5.8; D2 PAM: 8.5; TRPML1 agonist: 0.4; CtBP-E1A blk: -26.2; Six1-Eya2 blk: -23.2; PINK1 expr mod: 5.8%

Of the compounds above, these contain fluorine:
Results for COc1ccc(C(=O)C2CCCN(S(=O)(=O)c3ccccc3F)C2)c(C)c1 (stereo not drawn) ?
D2 ag: 0.9; D2 PAM: 19.9; TRPML1 agonist: 0.3; CtBP-E1A blk: 22.8; Six1-Eya2 blk: 27.5; PINK1 expr mod: 1.4%

Results for OCCNCCCCCOc1ccc(F)cc1 ?
D2 ag: 1.3; D2 PAM: -26.7; TRPML1 agonist: -0.3; CtBP-E1A blk: 6.9; Six1-Eya2 blk: 4.0; PINK1 expr mod: -0.8%[38.3 µM]

(listing goes on)
Results for O=C(NNC(=O)c1cc(OCC(F)(F)F)ccc1OCC(F)(F)F)c1cccc(C(F)(F)F)c1 ?
D2 ag: -2.8; D2 PAM: -22.5; TRPML1 agonist: 3.0; CtBP-E1A blk: 0.0; Six1-Eya2 blk: 11.9; PINK1 expr mod: 4.5%

What do the screens show for `COc1ccc(Br)cc1C1SCCN1S(C)(=O)=O` (stereo not drawn)?
D2 ag: -2.1; D2 PAM: -10.5; TRPML1 agonist: 2.2; CtBP-E1A blk: 2.5; Six1-Eya2 blk: -8.5; PINK1 expr mod: 8.9%

How did CCc1cc2c(SCc3ccc(C(=O)OC)o3)ncnc2s1 do in these assays?
D2 ag: -0.8; D2 PAM: 1.1; TRPML1 agonist: 1.4; CtBP-E1A blk: 15.9; Six1-Eya2 blk: 6.9; PINK1 expr mod: -1.4%

What do the screens show for `Cc1cc(C)nc(-n2nc(C)c(C3(O)C(=O)Nc4ccc(F)cc43)c2N)n1` (stereo not drawn)?
D2 ag: -15.1; D2 PAM: -64.4; TRPML1 agonist: 0.8; CtBP-E1A blk: 1.0; Six1-Eya2 blk: 10.5; PINK1 expr mod: -1.8%

How did CN(C)c1ccc(NC(=O)CN2C3CCCC2CC(NC(=O)c2ccccc2)C3)cc1 (stereo not drawn) do in these assays?
D2 ag: -0.6; D2 PAM: -3.9; TRPML1 agonist: 0.0; CtBP-E1A blk: -10.4; Six1-Eya2 blk: -6.9; PINK1 expr mod: -0.2%

Results for O=C(Nc1cccc(F)c1)Nc1ccc2c(c1)C(=O)OC2 ?
D2 ag: 0.1; D2 PAM: -5.7; TRPML1 agonist: 1.3; CtBP-E1A blk: 2.6; Six1-Eya2 blk: 10.7; PINK1 expr mod: -2.1%

Results for COc1ccc(N(CC(=O)Nc2cc(OC)ccc2OC)S(=O)(=O)c2c(C)noc2C)cc1 ?
D2 ag: -4.3; D2 PAM: -6.8; TRPML1 agonist: 4.5; Six1-Eya2 blk: -20.4; PINK1 expr mod: 3.1%

Results for NCC(c1ccccc1)(c1ccccc1)c1ccccc1 ?
D2 ag: -0.7; D2 PAM: -2.9; TRPML1 agonist: 0.0; CtBP-E1A blk: -11.7; Six1-Eya2 blk: -1.0; PINK1 expr mod: 1.9%

Results for COc1ccc(CCN2C(=O)CN=C2Nc2ccc(F)cc2)cc1OC ?
D2 ag: -3.3; D2 PAM: -4.4; TRPML1 agonist: 0.0; CtBP-E1A blk: -7.8; Six1-Eya2 blk: -3.2; PINK1 expr mod: 0.0%

Results for CCCc1nn2c(=O)cc(CSCC(=O)Nc3ccc(C)cc3)nc2s1 ?
D2 ag: -6.6; D2 PAM: -10.3; TRPML1 agonist: 0.0; CtBP-E1A blk: -4.8; Six1-Eya2 blk: -1.9; PINK1 expr mod: -1.6%

How did CC(Oc1ccccc1)C(=O)Nc1nnc(C2CCCCC2)s1 (stereo not drawn) do in these assays?
D2 ag: -0.6; D2 PAM: -3.1; TRPML1 agonist: 1.0; CtBP-E1A blk: 0.5; Six1-Eya2 blk: -0.7; PINK1 expr mod: 2.6%

Results for O=C1C[C@@H]2c3c(cccc3CN1Cc1ccccc1Br)C[C@@H](O)[C@H]2O ?
D2 ag: -2.6; D2 PAM: -8.3; TRPML1 agonist: -0.7&-0.4; CtBP-E1A blk: 7.2; Six1-Eya2 blk: 0.4; PINK1 expr mod: 2.0%

Results for COc1ccc(C(=O)COC(=O)CN2C(=O)NC3(CC(C)CC(C)(C)C3)C2=O)c(OC)c1 (stereo not drawn) ?
D2 ag: 0.9; D2 PAM: -5.3; TRPML1 agonist: 3.6; CtBP-E1A blk: 3.6; Six1-Eya2 blk: -8.8; PINK1 expr mod: 1.3%

What do the screens show for `Clc1nc2ccccc2cc1-c1nnn(-c2ccccc2)n1`?
D2 ag: -3.8; D2 PAM: -9.5; TRPML1 agonist: 0.0; CtBP-E1A blk: 7.2; Six1-Eya2 blk: 39.6; PINK1 expr mod: 4.6%

What do the screens show for `COc1cc(C(=O)N2CCN(CCCc3ccccc3)CC2)cc(OC)c1OC`?
D2 ag: 1.6; D2 PAM: 1.6; TRPML1 agonist: -0.1; CtBP-E1A blk: 3.7; Six1-Eya2 blk: -4.8; PINK1 expr mod: 0.7%

Results for O=S(=O)(NCC1CCCO1)c1cnc(Cl)c(Br)c1 (stereo not drawn) ?
D2 ag: -6.6; D2 PAM: 3.4; TRPML1 agonist: -2.0; CtBP-E1A blk: 5.4; Six1-Eya2 blk: 1.5; PINK1 expr mod: 2.6%
